High-throughput results from PubChem BioAssay.
Sa ugtP lethal: kills S. aureus RN4220 lacking UgtP; growth inhibition, % (concentration not given with the values); S. aureus RN4220 ugtP deletion, OD600 growth, 16 h; some inactives read as strong as hits; hit rate 0.54% among 330,000;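 active = z-score under -3 and OD600 up to 0.15 on both plates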;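 note: plate controls were untreated wells for no effect and antibiotic for full effect; wells of about 80 µL received 100 nL stock; the first replicate is given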
BJeLR lethal: kills HRASV12-expressing BJeLR cells; BJeLR (HRASV12) viability, CellTiter-Glo ATP luminescence, 48 h; reference of the scale not given here; inhibition, % (test concentration not listed); hit rate 0.17% among 300,000; AID 1554;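 active = replicate mean above 50%; inconclusive = above 50% but judged a plate artefact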;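 note: 50 nL library stock added to about 25 µL; numbers are from one replicate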
Bead autofluor: compound fluorescence in toxin protease inhibitor counterscreen; compound autofluorescence counterscreen, microsphere flow cytometry; stronger effect = higher value; AID 624483; hit rate 3.1% among 360,000; fluorescence intensity (concentration not given with the values);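 active = at least 3 SD above the mean of all compounds, about 16000 in these data; inconclusive = too few beads counted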;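 note: 100 nL of 1 mM stock went into each well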
Mtb hypoxia rep: inhibitors of hypoxia-regulated fluorescent reporter in Mycobacterium tuberculosis; fluorescence inhibition, % (test concentration not listed); M. tuberculosis hypoxia-regulated fluorescent reporter, fluorescence; hit rate 0.1% among 300,000; AID 1159583;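 active = 35 to 45% if threefold the growth effect, above 45% if 1.5-fold the growth effect; inactive = the rest, general growth blockers included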;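 note: wells of about 50 µL received 100 nL stock; 0% = vehicle wells and 100% = reference inhibitor wells; whole bacteria with a GFP reporter of the hypoxia response; strong numbers were not always called active; many hits fall short of the cut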
Sa RN4220 lethal: S. aureus RN4220 growth inhibition; hit rate 0.33% among 330,000; OD600, 16 h; inhibition, % (concentration not given with the values);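 active = z-score of -3 or lower and OD600 up to 0.18 on both plates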;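 note: plate controls were untreated cells for no effect and reference antibiotic for full effect; stock transfer was 100 nL into about 80 µL; one replicate is shown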
PrP 5UTR inh: inhibition of PrP 5' UTR reporter expression | inhibition, % (no concentration beside the values) | hit rate 0.35% among 340,000 | cell-based PrP 5' UTR mRNA reporter, plate reader | AID 488862;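 active = every replicate at 50% or more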;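 note: 0 = median of the neutral control wells; tested in H4 reporter cells; numbers are from one replicate; inactives centre near -14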
Mtb hypoxia rep growth: recorded beside Mtb hypoxia rep, whose call it bears; growth inhibition, %; measured here: M. tuberculosis growth (absorbance);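 0% = vehicle and 100% = reference antibiotic; read after six days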
* = called active by the depositor; ? = inconclusive; . = no result given. Compounds were not picked by outcome. Share with any hit: about 4.1%.

SMILES	Sa ugtP lethal	BJeLR lethal	Bead autofluor	Mtb hypoxia rep	Mtb hypoxia rep growth	Sa RN4220 lethal	PrP 5UTR inh
COc1ccc(CNC(=O)c2ccccc2[N+](=O)[O-])cc1	-4	-9	11205	9	10	6.3	-19
COc1ccccc1-n1nc(C)cc1N	4	6	4355	6	0	9.1	-16
Cc1c(C#N)c2ncn(Cc3ccccn3)c(=O)c2n1-c1ccccc1	-3	3	2135	.	.	2.8	-22
NC(=O)C1(c2ccccc2)CCOCC1	0	-2	4742	.	.	2.0	5
COc1ccc(C=NNC(=O)CC#N)cc1Oc1nc(Cl)ncc1F	6	.	.	17	-4	2.4	.
C=CCN(C(=O)CN1CCOCC1)c1nc(C)c(-c2ccccc2)s1	-8	-2	3218	8	18	-6.5	-12
COc1ccc(C2=NN(c3ccccc3)C(c3cccs3)C2)cc1 (stereo unspecified)	1	-1	3563	-4	5	-6.9	-10
O=C(CN1C(=O)c2ccccc2S1(=O)=O)NCc1ccccn1	1	4	6677	-5	-26	1.8	-27
Cc1ccc(OCCNC(=O)c2ccc3c(c2)OCO3)cc1	2	1	6399	11	-1	4.0	-19
COc1nc(NC(C)C)nc(N(C#N)CN2C(=O)c3ccccc3S2(=O)=O)n1	11	-12	3327	-1	-2	2.2	-2
COc1ccc(OC)c(CNS(=O)(=O)c2cn(C)cn2)c1	5	11	5067	3	9	1.0	-13
CCn1c(O)c(N=NC(=O)c2cccnc2)c2cc(Br)ccc21	0	-3	4410	-21	6	6.2	-22
Cc1cc(OCC(=O)Nn2cnnc2)c(C)cc1Br	3	-16	2445	10	9	-12	-29
COc1cccc(C(=O)NC(=S)Nc2cccnc2)c1	1	-1	2514	0	10	0.5	-32
C(=N\n1cnnc1)/c1cccc(OCCOc2ccccc2)c1	.	-10	2337	.	.	.	-65
COc1ccc(C(=O)NCC(=O)OCC(=O)N2CC(C)CC(C)C2)cc1 (stereo unspecified)	-2	3	17297*	10	5	2.3	-5
Cc1ccsc1/C=N/n1c(-c2cccnc2)n[nH]c1=S	.	2	9837	.	.	.	-19
CCOc1cc(NC(=S)NCC2CCCO2)c(OCC)cc1NC(=O)c1cccc(C)c1 (stereo unspecified)	-10	2	5875	-14	3	-4.6	-4
Cc1cc(C)cc(NC(=O)CSc2nnc(-c3ccccc3)n2N)c1	3	-6	3152	0	-7	0.4	-7
COC(=O)c1cn(NC(=O)Cc2cccc(OC)c2)c(=O)c2ccccc12	3	12	2657	7	7	2.7	3
CC1(C)Cc2c(C#N)c(NCC3CCCO3)nc(-c3ccco3)c2CO1 (stereo unspecified)	4	-6	3246	1	5	9.1	-15
CCOC1=C(N2CC2)C(=O)C(OCC)=C(N2CC2)C1=O	1	.	3104	5	3	1.6	-18
Cc1oc2cc(O)ccc2c(=O)c1-c1ccccc1	1	-9	2505	-1	8	1.5	-13
O=C(O)CC(=O)Nc1cc(Cl)ccc1O	10	-4	9265	9	5	2.9	-22
O=C(Nc1cc(C(F)(F)F)ccc1N1CCCC1)C1CCCO1 (stereo unspecified)	-3	.	5941	-13	2	-3.0	-14

By substructure, those above containing a halogen
SMILES	Sa ugtP lethal	BJeLR lethal	Bead autofluor	Mtb hypoxia rep	Mtb hypoxia rep growth	Sa RN4220 lethal	PrP 5UTR inh
COc1ccc(C=NNC(=O)CC#N)cc1Oc1nc(Cl)ncc1F	6	.	.	17	-4	2.4	.
CCn1c(O)c(N=NC(=O)c2cccnc2)c2cc(Br)ccc21	0	-3	4410	-21	6	6.2	-22
Cc1cc(OCC(=O)Nn2cnnc2)c(C)cc1Br	3	-16	2445	10	9	-12	-29
O=C(O)CC(=O)Nc1cc(Cl)ccc1O	10	-4	9265	9	5	2.9	-22
O=C(Nc1cc(C(F)(F)F)ccc1N1CCCC1)C1CCCO1 (stereo unspecified)	-3	.	5941	-13	2	-3.0	-14

Additional records follow.
SMILES	Sa ugtP lethal	BJeLR lethal	Bead autofluor	Mtb hypoxia rep	Mtb hypoxia rep growth	Sa RN4220 lethal	PrP 5UTR inh
CCCC1OC2CC3C4CCC5=CC(=O)C=CC5(C)C4C(O)CC3(C)C2(C(=O)O)O1 (stereo unspecified)	-1	-1	3582	-5	-3	4.0	-28
O=C1N=C(N2CCCCC2)S/C1=C\c1ccccc1F	-5	-4	.	18	8	2.5	3
Cc1ccc(OC/C(=N\O)C(C)(C)C)c([N+](=O)[O-])c1	.	1	3524	.	.	.	-7
O=C(CSc1cnc2ccccc2n1)NC1CCCC1	-3	-4	5647	9	14	1.6	-13
O=C(NC(Oc1ccccc1)C(Cl)(Cl)Cl)c1ccccc1 (stereo unspecified)	-5	-7	3738	4	8	7.3	-18
O=C(c1cc2cc(Br)ccc2o1)N1CCCCC1	-6	-3	2171	2	10	5.1	-39
O=[N+]([O-])c1ccc(N2CCN(C(=S)NCc3ccc(Cl)cc3)CC2)cc1	-2	3	4277	2	12	-1.9	-6
C[N+]1(CCCCSc2ccc(O)cc2)CCCCC1	6	7	2498	4	3	2.6	-7
COc1cc(C(=O)NCCN=C2NS(=O)(=O)c3ccccc32)cc(OC)c1OC	6	-7	3681	0	0	-1.0	-7
CCC(CC)NC(=O)Cc1ccc(S(=O)(=O)N2CCOCC2)s1	4	-4	10356	-2	-3	0.9	3
Cc1ccc(CN2CCC(c3cc(-c4ccc(Cl)cc4)n[nH]3)CC2)cc1	-10	16	4475	22	9	-4.1	-8
Cc1cc(C)nc(OC(C(=O)O)C(OCc2ccccc2)(c2ccccc2)c2ccccc2)n1 (stereo unspecified)	15	-24	3927	12	2	-2.0	-21
CC(=O)n1cc(C=C2C(=O)NC(=O)NC2=O)c2ccccc21	.	-4	6327	.	.	.	1
Cn1cc(S(=O)(=O)N2CCOCC2)cc1C(=O)Nc1ccc(Cl)cc1	17	-4	4517	-1	5	25	-3
COc1ccc(N=c2scc(C)n2CCCN2CCCC2=O)cc1	4	-5	4317	3	5	3.3	-12
Cc1cccc(NC(=S)NNC(=O)c2ccc3c(c2)OCO3)c1	-2	3	5391	8	1	5.7	-66
Cc1ccccc1N1C(=O)CC(=O)N(c2ccccc2C)C1=O	6	2	2501	0	9	0.7	-4
O=C(NC(=S)N1CCN(c2nc(-c3ccccc3)cs2)CC1)c1cccnc1	11	-13	1921	12	6	-1.6	15
CC(C)(C)OC(=O)NCc1ccc(CNC(=O)c2ncn(Cc3ccccc3)c2C(=O)NCc2ccc(CNC(=O)OC(C)(C)C)cc2)cc1	11	.	3760	21	8	0.9	-9
O=C1CCN(Cc2ccc(Br)cc2)CCN1CCO	-1	1	4474	6	9	2.5	-35
CC(=O)N1CCc2cc(S(=O)(=O)NC(Cc3ccccc3)C(=O)O)ccc21 (stereo unspecified)	11	2	5148	3	1	2.8	-10
CC(NS(=O)(=O)c1ccccc1)C(N)=O (stereo unspecified)	7	-6	17096*	4	5	4.1	-3
COc1ccc(CC(NC(C)=O)C(=O)NC2CCN(C(=O)Nc3ccccc3Cl)CC2)cc1OC (stereo unspecified)	5	-2	4418	13	21	3.7	-29
O=C(Nc1cccc(Cl)c1)OC1CCCCc2cccnc21 (stereo unspecified)	-8	-8	6207	6	-6	3.6	-32
N#Cc1ccc(NC(=O)CSc2nc3[nH]c(=O)cc(O)c3s2)cc1	-1	.	?	0	1	17	-10

(continued)
SMILES	Sa ugtP lethal	BJeLR lethal	Bead autofluor	Mtb hypoxia rep	Mtb hypoxia rep growth	Sa RN4220 lethal	PrP 5UTR inh
CN(CC(=O)Nc1ccc(F)cc1)C(=O)COC(=O)C1=COCCO1	-3	6	6244	-13	-14	-3.2	-40
CCOc1ccc(-n2c(CCc3ccccc3)n[nH]c2=S)cc1	3	5	3081	-1	2	5.2	-4
NC(=O)c1ccccc1NS(=O)(=O)c1ccc2c(c1)OCCO2	-3	-5	9399	12	18	2.5	-8
Cc1ccc(C2(c3ccccc3)NC(=O)N(CC(=O)N(C)C3CCS(=O)(=O)C3)C2=O)cc1C (stereo unspecified)	4	.	2863	18	27	-0.6	9
CC(C)CC(=O)c1c[nH]c(C(=O)N2CCN(Cc3ccccc3)CC2)c1	14	-3	4416	12	4	6.4	-8
CC(=O)Nc1ccc(C2=NNC(=Nc3cccc(S(=O)(=O)N(C)C)c3)SC2)cc1	-2	8	2333	10	12	4.0	3
CC1CN(C(=O)CCS(=O)(=O)c2ccccc2)CC(C)O1 (stereo unspecified)	9	1	3171	-1	-7	2.7	0
Brc1cc2c(cc1C=NNc1nc(N3CCCC3)nc(N3CCOCC3)n1)OCO2	-19	.	.	-2	9	0.8	.
CC(C)C[C@@H](CSc1ccccc1)N1CCN(CC(C)C)CCC1=O	.	5	3889	.	.	.	-17
Cc1cc(C)nc(NC(=O)C2c3ccccc3Oc3ccccc32)n1	-4	0	3633	8	7	4.0	-5
Cc1cccc(-n2c(O)c(C=Nc3ccc(O)cc3)c3ccccc3c2=O)n1	0	-16	2148	9	4	4.1	-33
O=C(O)CSCC(=O)N1CCCCC1	6	3	4856	23	3	0.3	-14
COc1cc(C)c(S(=O)(=O)n2ccc(C)n2)cc1C	4	-4	3232	15	13	4.4	-9
CCOC(=O)c1[nH]c(C)c(C(=O)OCC(=O)NCc2ccc(OC)cc2)c1C	-7	.	7252	1	6	-5.2	-21
Cc1ccccc1-n1c(SCC(=O)NN=Cc2c(C)nn(-c3ccccc3)c2C)nc2ccccc2c1=O	-15	.	.	.	.	-5.2	.
O=C(c1ccc(F)cc1)N(Cc1ccco1)C1CCS(=O)(=O)C1 (stereo unspecified)	7	1	6124	11	-7	0.1	-10
CCCc1ccc2oc(C(=O)NCCN3CCCC(O)C3)c(C)c2c1 (stereo unspecified)	16	-5	5722	11	3	2.9	-11
Cc1ccc(C(C(=O)NC2CCCC2)N(Cc2ccccc2)C(=O)c2csnn2)o1 (stereo unspecified)	20	-4	3084	3	-5	6.4	-13
CC(C)N(Cc1ccccc1)C(=O)COc1ccccc1	3	5	4243	6	11	2.6	-9
COc1ccc(S(=O)(=O)NCc2ccc(C(=O)O)cc2)cc1	4	-6	20146*	3	3	4.7	-16
COc1ccc(OC)c(NC(=O)C23CCC(C)(C(=O)O2)C3(C)C)c1 (stereo unspecified)	0	-5	2685	.	.	2.5	-2
O=C(NC1CCCCC1)c1ccc(S(=O)(=O)NCc2cccnc2)cc1	7	3	6701	4	-2	-1.5	-18
Cc1ccc(NC(=S)N(Cc2ccco2)C2CCN(C(C)C)CC2)cc1	.	0	2103	.	.	.	-31
Cn1ncc2c(Nc3cccc4ccccc34)ncnc21	-5	8	3209	.	.	-3.3	-10
COc1cccc(NC(=O)CN(C)CC(=O)Nc2ccc3c(c2)OCO3)c1	5	.	3996	3	1	2.6	-33

(continued)
SMILES	Sa ugtP lethal	BJeLR lethal	Bead autofluor	Mtb hypoxia rep	Mtb hypoxia rep growth	Sa RN4220 lethal	PrP 5UTR inh
CC(C)(C)c1ccc(C(=O)NC(=S)NNC(=O)c2cccs2)cc1	92*	15	1933	-12	6	86*	6
COc1ccc(NC(=O)CNS(=O)(=O)c2ccc3nc(C)sc3c2)c(OC)c1	-8	2	2755	2	9	2.5	-14
Cc1cc(C)c(NC(=O)CSc2nnc(SCC(=O)Nc3c(C)cc(C)cc3C)n2N)c(C)c1	-2	-10	2979	1	5	3.0	1
CCc1ccc(CNC(=O)c2nn(C)c3c2CS(=O)(=O)c2ccccc2-3)cc1	13	7	4331	2	-1	-0.9	-10
CCOc1ccc(C(=O)N2CCCC(c3nc(-c4ccc(C)o4)no3)C2)cc1 (stereo unspecified)	4	-6	4077	14	15	1.0	-20
CCOc1cccc(/C=N/NC(=O)c2cccnc2)c1O	.	6	3214	.	.	.	12
COc1ccc(CC(NC(C)=O)C(=O)N2CCN(C(=O)N(C(C)C)C(C)C)CC2)cc1 (stereo unspecified)	0	0	8064	0	4	5.7	-17
O=C(Cn1c(=O)oc2cccnc21)Nc1ccccc1Oc1ccc(Cl)cc1Cl	4	12	.	1	6	2.6	.
CCC(=O)Nc1nc(C)c(-c2csc(Nc3ccc(C(=O)O)cc3)n2)s1	-4	16	3326	-2	6	-0.2	-19
CC(=O)C(=NNc1ccccc1Cl)Sc1cccc2cccnc12	63	.	.	9	-2	2.2	.
CCSc1nc2c([nH]1)c(=O)n(C)c(=S)n2C	-6	.	3698	6	5	8.1	-14
CCOC(=O)C1CCN(C(=O)CCNS(=O)(=O)c2ccc(C)cc2)CC1	0	.	8654	-14	-2	-0.3	-1
COc1ccc(C=NNC(=O)c2cc(C)oc2C)cc1OC	-4	.	.	-5	16	-4.1	.
CC(=O)N(Cc1ccccc1C)c1cccc(C)c1C	2	3	3648	9	8	8.9	-35
